Assay outcomes from PubChem.
Sa growth inh: S. aureus growth inhibition at 42 and 30 °C, primary screen, LtaS inhibitor project, RN4220, two temperatures; OD600, 20 h, 42 °C; active compounds read low; relative growth, % (concentration not given with the values); 170,000 tested, 0.53% active; AID 720641, 2013;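 active means growth at 42 °C up to 50% and 20 or more points under that at 30 °C, or under 10% at both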;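 further: 300 nL library stock went into each well; scaled to the means of positive and negative controls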
GIV-Gai inh: inhibitors of GIV peptide binding to Galpha-i3, primary screen, biochemical, fluorescence polarization, FITC-GIV GBA peptide, rat Galphai3 | Guanine nucleotide-binding protein G(i) subunit alpha-3 (Rattus norvegicus), P08753 | 90 min; active compounds read low; scaled: aluminum fluoride 0%, vehicle 100% | 210,000 tested, 0.42% active | AID 1224905, 2016 | percent of control (FP), % (no concentration beside the values);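 active means replicate mean at 85% of control or lower, very high polarization wells dropped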;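 further: wells of about 15 µL received 100 nL stock; the first replicate is given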
Target sequence (P08753 whole entry, looked up): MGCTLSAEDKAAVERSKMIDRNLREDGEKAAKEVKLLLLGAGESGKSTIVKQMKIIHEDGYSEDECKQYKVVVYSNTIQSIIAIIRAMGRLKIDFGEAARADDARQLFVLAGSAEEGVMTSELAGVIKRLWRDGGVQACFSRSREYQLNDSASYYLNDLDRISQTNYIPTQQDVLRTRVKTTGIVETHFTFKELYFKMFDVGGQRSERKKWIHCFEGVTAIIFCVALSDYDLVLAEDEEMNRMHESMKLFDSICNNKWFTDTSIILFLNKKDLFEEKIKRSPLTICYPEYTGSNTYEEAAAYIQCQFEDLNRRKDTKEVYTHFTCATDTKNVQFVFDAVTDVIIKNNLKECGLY
HCMV NEC inh: inhibitors of HCMV UL50-UL53 interaction, biochemical, HTRF; HCMV UL50-UL53 nuclear egress complex (human cytomegalovirus); normalized percent inhibition; inhibition, % (test concentration not listed); 190,000 tested, 0.15% active; AID 1918969, 2023;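 active means both replicates at 50% or more, plus weaker picks with an unusually low signal ratio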;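 further: stock transfer was 100 nL into about 20 µL; 0% = negative control wells and 100% = wells with untagged competitor protein; inactives centre near -12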
Sa growth inh second temp: also measured in Sa growth inh; calls as there; relative growth, %; measured here: growth at 30 °C;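 optical density after 20 h as mean of two plates; 100% = untreated growth and lower means inhibition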
* marks the source's active call; other numbers are inactive results; . = no result given; & = joins results of further samples.

molecule,Sa growth inh,Sa growth inh second temp,GIV-Gai inh,HCMV NEC inh
CCOC(=O)C1CCN(C(=O)CCc2nc3sc4c(c3c(=O)[nH]2)CCC(C(C)(C)C)C4)CC1 (stereo not given),.,.,94,20
CC(C(=O)O)c1ccc(CC2CCCC2=O)cc1 (stereo not given),96,81,103,-78&-20
CC(C)COC(=O)c1nnsc1NC(=O)Nc1ccccc1,89,80,99,-32
CC(C)N(Cc1ccccc1)S(=O)(=O)c1ccc2c(c1)OCCO2,83,97,.,-2
CCc1ccc(NC(=O)N2CCCC(CN3CCc4ccccc4C3)C2)cc1 (stereo not given),105,93,103,13
Cc1ccccc1NC(=O)c1ccc2nc(Cc3ccccc3)oc2c1,92,88,98,.
O=C(Cc1noc2ccccc12)NCCOC12CC3CC(CC(C3)C1)C2,104,92,106,.
CCc1nnc(SCc2ccc(F)cc2Cl)c2cc3sccc3n12,108,97,108,.
O=c1cc(CN2CCOCC2)nc2nc(NCc3ccccc3)[nH]n12,.,.,111,7
COC(=O)C1=CN(Cc2ccc(OC)cc2)C=C(C(=O)OC)C1c1cc(OC)c(OC)c(OC)c1,.,.,103,-22
Cc1noc(C)c1COc1ccc(C(=O)NCC2COc3ccccc3O2)cc1 (stereo not given),96,90,.,-24
CCSc1nnc2c(n1)OC(/C(C)=C/c1ccccc1)Nc1ccccc1-2 (stereo not given),.,.,103&108,-13&-17
CNc1nn(-c2cccc(Cl)c2)nc1N,96,80,99,11
Cc1cc(-c2ccc(S(=O)(=O)Nc3cccc(C)c3C)s2)on1,108,98,105,.
CC(=NCCc1ccc(Cl)cc1)c1ccccc1O,110,93,105,-9
CC1CCCCN1S(=O)(=O)c1cccc(C(=O)O)c1 (stereo not given),97,102,97,-11
O=C(Nc1ccccc1F)NC1CCCc2ccccc21 (stereo not given),98,89,104,7
COc1cccc(N2CCN(c3ncnc4c3c(-c3ccccc3)cn4-c3cccc(C(F)(F)F)c3)CC2)c1,108,96,105,.
Nc1c(C(=O)Nc2cccc(F)c2)c2ccccn2c1C(=O)c1ccccc1,109,92,101,-7
CCCS(=O)(=O)NCCc1csc2nc(-c3ccc(C)cc3)nn12,128,94,106,.
CSc1cccc(NC(=O)Cn2nnc(C(=O)NCCc3ccccc3)c2N)c1,124,74,101,.
COc1ccc(-c2noc(N3CCc4ccccc43)n2)cc1,92,90,104,.
O=C(OCc1cc(=O)n2nc(-c3cccs3)sc2n1)c1ccccc1Cl,99,77,109,.
CN1CCN(c2ccc(NC(=O)Cc3ccccc3)cc2)CC1,77,85,96,-20
N#CC(CC(=O)N1CCCCCC1)C(=O)Nc1ccc(Cl)cc1 (stereo not given),100,97,.,1

An excerpt from above, limited to Sa growth inh second temp, HCMV NEC inh and Sa growth inh.
molecule,Sa growth inh second temp,HCMV NEC inh,Sa growth inh
CCc1nnc(SCc2ccc(F)cc2Cl)c2cc3sccc3n12,97,.,108
O=c1cc(CN2CCOCC2)nc2nc(NCc3ccccc3)[nH]n12,.,7,.

The results go on:
molecule,Sa growth inh,Sa growth inh second temp,GIV-Gai inh,HCMV NEC inh
O=C(CSc1nc2ccsc2c(=O)n1Cc1ccccc1Cl)NCc1ccc(F)cc1,91,93,101,-15
CCOc1ccc(C(=O)c2[nH]c(=O)c3ccccc3c2O)cc1,72,87,89,61*
O=C(c1c(-c2ccccc2)nnc2ccccc12)N1CCN(Cc2ccc3c(c2)OCO3)CC1,.,.,98,-15
COc1ccccc1CN1CC(=O)N(c2ccc(C)c(C)c2)[C@@H]2CS(=O)(=O)C[C@@H]21,.,.,101,-23
O=C(Cn1nnc(-c2cccc(C(F)(F)F)c2)n1)Nc1ccc(F)cc1,96,84,102,-13
COc1ccc(NC(=O)CC(c2ccccc2)c2ccco2)cc1 (stereo not given),77,92,105,-6
CCN(CC)C(=O)CC(c1ccccc1)c1ccco1 (stereo not given),109,95,113,-1
CCOC(=O)c1[nH]c2ccccc2c1NC(=O)c1ccccc1C,.,.,103,2
CCC(=O)NC(=S)Nc1cccc(Cl)c1N1CCOCC1,113,103,109,-2
COCCNC(=O)Cc1ccc(-n2c(=O)c3ccccc3n(CC(=O)NC3CCCCC3)c2=O)cc1,.,.,103,12
Cc1ccc(-c2csc(-c3ccccc3N)n2)cc1,106,80,101,.
Cc1ccc(N2C(=O)CSC23C(=O)N(CC(=O)Nc2ccc(C(C)C)cc2)c2ccccc23)cc1C (stereo not given),97,89,99,.
CCOC(=O)C1CCCN(C(=O)c2cc3c(s2)-c2c(C)nn(-c4ccccc4)c2CC3)C1 (stereo not given),.,.,110,-8
Cc1ccc(NC(=O)C2=Cc3ccc(C)cc3OC=C2)cc1,.,.,102,-23
Cc1ccc(Nc2nnc(-c3ccccc3)c3ccccc23)cc1,81,89,.,-17
Cc1ccc(-n2c(C)cc(=O)cc2C)c(C)c1,97,87,100,.
CCC(C(=O)O)n1nnc(-c2ccsc2)n1 (stereo not given),103,95,.,0
Cc1ccc(Cn2c(=O)oc3ccccc32)cc1,98,91,100,-6
Cc1c(C(=O)NN)nc2ccccn12,110,85,.,-9
Cc1ccc(C2(O)C(=O)c3ccccc3C2=O)c(O)c1C,109,79,108,-1
Cc1cc(C)c2[nH]c(=O)c(CN(CCN3CCOCC3)C(=S)NCC3CCCO3)cc2c1 (stereo not given),89,86,107,-28
N#CC1(NC(=O)CN2CCN(c3ccccc3Cl)CC2)CCCC1,95,85,.,-10
CCc1nc2c3ccccc3ncn2n1,78,92,.,-25
O=C(NCCCN1CCN(c2ccccc2)CC1)c1ccc2nc(CCc3ccccc3)oc2c1,72,88,96,.
CC(=O)c1ccc(S(=O)(=O)N2CCn3cccc3C2c2ccc(F)c(F)c2)cc1 (stereo not given),134,82,96,.
COc1ccccc1N1CCN(C(=O)Cn2ncc3c(=O)oc4ccc(C)cc4c32)CC1,103,91,103,-40
O=C(CC1Nc2ccccc2NC1=O)NC1CCCCC1 (stereo not given),.,.,112,-5
CCc1c(C)nc2nc(NCc3cccc(C)c3)[nH]n2c1=O,.,.,105,-1
CCOC(=O)c1csc(-c2cc(C)on2)n1,101,85,100,3
Cc1nnc(N2CCCC(C(=O)NC3CC3)C2)c2nn(-c3ccccc3)c(C)c12 (stereo not given),89,98,105,-10
CCN(CC)S(=O)(=O)c1ccc(NCCOC)c(C(=O)O)c1,115,88,.,-28
CN(Cc1nc2ccccc2n1CCc1ccccc1)S(=O)(=O)c1ccccc1,74,70,101,-14
O=C1NNS(=O)(=O)c2ccccc21,51,69,.,-11
CCC(C)(C)NC(=O)c1ccc2c(c1)OCCO2,120,87,.,-29
OC(CNCCNc1ccc(C(F)(F)F)cn1)Cn1ccc2ccccc21 (stereo not given),94,47,105,-16
CCn1c2ccccc2c2cc(N=C=S)ccc21,128,96,.,-6
CN1C(=O)C/C(=N\O)N(C)C1=O,88,80,105,-28
CCOc1ccccc1NC(=O)c1scc(-c2ccccc2)c1-n1cccc1,.,.,106,-16
Cc1ccc(N2Cc3ccccc3OC(C)C2=O)cc1 (stereo not given),123,89,106,-16
COc1ccccc1-n1nnnc1SCc1ccccc1,116,95,105,-7
COc1ccc(-c2onc(C)c2C)cc1S(=O)(=O)NCCc1ccccc1,83,73,100,.
CC(C)CNS(=O)(=O)c1ccc(NC(=O)c2cccnc2)cc1,101,103,96,-5
Cc1ccc(-c2noc(CN3CCN(c4ccccc4F)CC3)n2)cc1,114,103,102,.
Cn1cc(S(=O)(=O)N2CCCCC2)cc1C(=O)Nc1ccc2c(c1)OCCO2,.,.,105,-23
O=C(Cn1c2ccccc2c2cn[nH]c(=O)c21)NCC1CCCO1 (stereo not given),94,78,101,-15
O=C(Nc1noc2c1COc1ccccc1-2)N1CCC(Cc2ccccc2)CC1,93,91,104,-30
Cc1ccc(CN(C(=O)c2ccccc2[N+](=O)[O-])c2ccccn2)cc1,109,86,99,-36
Cc1ccc(-c2nnc(SCc3ccc(C#N)cc3)o2)cc1,82,90,.,-23
O=C(Nc1nnc(CCN2CCOCC2)s1)c1ccc(Cl)cc1,103,83,103,1
Cc1nnc(NC(=O)CSc2nnc(Cc3c(C)nc4c(C)cccn4c3=O)n2C)s1,.,.,104,-20

(list continues)
Codes: A = Sa growth inh; B = Sa growth inh second temp; C = GIV-Gai inh; D = HCMV NEC inh
Cc1ccc(NC(c2cccnc2)c2ccc3cccnc3c2O)cc1C (stereo not given)
  A = .	B = .	C = 103	D = -81

CNC(=O)c1ccc(Nc2nnc(-c3ccc(C)c(S(=O)(=O)N(C)C)c3)c3ccccc23)cc1
  A = 98	B = 79	C = 105	D = -55

CCN(C(=O)c1cc2cc3ccc(OC)cc3nc2o1)c1cccc(C)c1
  A = 101	B = 86	C = 102	D = -24

Cc1ccccc1C(=O)N1CCC(C(=O)N2CCCc3ccccc32)CC1
  A = 105	B = 95	C = .	D = -4

Cc1ccc(Cl)cc1NC(=O)c1ccc(CN2C(=O)CCn3nccc32)cc1
  A = .	B = .	C = 105	D = -3

CCC1(CC)Cc2ccccc2C(=C(C#N)C#N)N1
  A = 98	B = 86	C = 101	D = -33

CCCCn1c(=NC(=O)c2c(-c3c(F)cccc3Cl)noc2C)c(C(=O)OCC)cc2c(=O)n3ccccc3nc21
  A = 99	B = 99	C = 100	D = 20

CCn1c(=N)c(S(=O)(=O)c2ccccc2)cc2c(=O)n3ccccc3nc21
  A = 108	B = 84	C = 105	D = .

CCOC(=O)c1cn(C2CC(O)(O)C3OCC2O3)nc1N (stereo not given) (tested in a mixture with another compound)
  A = 87	B = 85	C = .	D = -4

O=C(c1cccc(F)c1)N1CCN(c2ncnc3c2c(-c2ccccc2)cn3-c2ccccc2)CC1
  A = .	B = .	C = 105	D = 3

CCc1ccccc1NC(=O)CSc1nnc(CC)c(CC)n1
  A = 90	B = 92	C = 103	D = .

NNC(=O)c1csc(N2CCOCC2)n1
  A = 80	B = 91	C = .	D = -14

O=C(NC1CCCC1)C1=Cc2cc(Br)ccc2OC=C1
  A = .	B = .	C = 108	D = -3

O=S(=O)(NCC1CCN(S(=O)(=O)c2ccccc2)CC1)c1cccs1
  A = 67	B = 66	C = 104	D = 0

Cc1c([N+](=O)[O-])c([N+](=O)[O-])nn1CC(=O)Nc1cc(Oc2cccnc2)cc([N+](=O)[O-])c1
  A = .	B = .	C = 101	D = -52

CCCCCCCc1c(O)c2cccc3c2n(c1=O)CCC3
  A = 68	B = 37	C = 109	D = -27

COc1ccc(-c2cc(N)n(C)n2)cc1
  A = 91	B = 96	C = 100	D = -17

CNC(=O)c1c(-c2ccccc2)c2cc(OC)ccc2n1CCN(C)C
  A = 94	B = 90	C = 99	D = .

CNC(=O)c1cc(Cl)ccc1I
  A = 105	B = 96	C = 108	D = 2

COc1ccc(NCC2=NNC(=O)c3ccccc3O2)cc1
  A = .	B = .	C = 97	D = -14

COc1ccc(C2NC(=O)C(C#N)=C(S)N2c2ccccc2)cc1OC (stereo not given)
  A = 103	B = 84	C = .	D = -2

COc1ccc(OCC(=O)Nc2cccc(-c3nc4ccccc4s3)c2C)cc1
  A = 95	B = 81	C = 102	D = 8

O=C(OCC(=O)N1CCCC1)C1CCN(S(=O)(=O)c2cccs2)CC1
  A = 102	B = 96	C = .	D = -24

Cc1nc(CSc2nnc3scc(-c4ccccc4)n23)cs1
  A = 76	B = 91	C = 109	D = .

Cc1ccc(NC(=O)CNCc2ccco2)cc1Cl
  A = 136	B = 95	C = 106	D = -22

For convenience, some entries already given:
Codes: A = Sa growth inh; B = Sa growth inh second temp; C = GIV-Gai inh; D = HCMV NEC inh
CCOC(=O)c1cn(C2CC(O)(O)C3OCC2O3)nc1N (stereo not given) (tested in a mixture with another compound)
  A = 87	B = 85	C = .	D = -4

O=C(c1cccc(F)c1)N1CCN(c2ncnc3c2c(-c2ccccc2)cn3-c2ccccc2)CC1
  A = .	B = .	C = 105	D = 3

CCc1ccccc1NC(=O)CSc1nnc(CC)c(CC)n1
  A = 90	B = 92	C = 103	D = .

NNC(=O)c1csc(N2CCOCC2)n1
  A = 80	B = 91	C = .	D = -14

O=C(NC1CCCC1)C1=Cc2cc(Br)ccc2OC=C1
  A = .	B = .	C = 108	D = -3

O=S(=O)(NCC1CCN(S(=O)(=O)c2ccccc2)CC1)c1cccs1
  A = 67	B = 66	C = 104	D = 0

Cc1c([N+](=O)[O-])c([N+](=O)[O-])nn1CC(=O)Nc1cc(Oc2cccnc2)cc([N+](=O)[O-])c1
  A = .	B = .	C = 101	D = -52

CCCCCCCc1c(O)c2cccc3c2n(c1=O)CCC3
  A = 68	B = 37	C = 109	D = -27

COc1ccc(-c2cc(N)n(C)n2)cc1
  A = 91	B = 96	C = 100	D = -17

CNC(=O)c1c(-c2ccccc2)c2cc(OC)ccc2n1CCN(C)C
  A = 94	B = 90	C = 99	D = .

CNC(=O)c1cc(Cl)ccc1I
  A = 105	B = 96	C = 108	D = 2

COc1ccc(NCC2=NNC(=O)c3ccccc3O2)cc1
  A = .	B = .	C = 97	D = -14

COc1ccc(C2NC(=O)C(C#N)=C(S)N2c2ccccc2)cc1OC (stereo not given)
  A = 103	B = 84	C = .	D = -2

COc1ccc(OCC(=O)Nc2cccc(-c3nc4ccccc4s3)c2C)cc1
  A = 95	B = 81	C = 102	D = 8
